Source: PubChem BioAssay (National Center for Advancing Translational Sciences (NCATS))
TRPML1 inh: blocks the human TRPML1 channel. Q9GZU1. TRPML1-inducible cells, Ca2+ dye fluorescence, FDSS; active compounds read low; inhibition of EC80 agonist-evoked calcium signal. activity change, negative = inhibition, % (concentration not given with the values). 0.02% of 390,000 active; in the data active means activity change below about -50%; inconclusive means about -30% to -50%; inactive means above about -30%;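 also: stimulus is agonist 54-4 at its EC80 concentration; % is scaled to controls: 0 for no effect and ±100 for the full control effect; the text of the record puts the active cut at -80%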
Target sequence (Q9GZU1 whole entry, looked up): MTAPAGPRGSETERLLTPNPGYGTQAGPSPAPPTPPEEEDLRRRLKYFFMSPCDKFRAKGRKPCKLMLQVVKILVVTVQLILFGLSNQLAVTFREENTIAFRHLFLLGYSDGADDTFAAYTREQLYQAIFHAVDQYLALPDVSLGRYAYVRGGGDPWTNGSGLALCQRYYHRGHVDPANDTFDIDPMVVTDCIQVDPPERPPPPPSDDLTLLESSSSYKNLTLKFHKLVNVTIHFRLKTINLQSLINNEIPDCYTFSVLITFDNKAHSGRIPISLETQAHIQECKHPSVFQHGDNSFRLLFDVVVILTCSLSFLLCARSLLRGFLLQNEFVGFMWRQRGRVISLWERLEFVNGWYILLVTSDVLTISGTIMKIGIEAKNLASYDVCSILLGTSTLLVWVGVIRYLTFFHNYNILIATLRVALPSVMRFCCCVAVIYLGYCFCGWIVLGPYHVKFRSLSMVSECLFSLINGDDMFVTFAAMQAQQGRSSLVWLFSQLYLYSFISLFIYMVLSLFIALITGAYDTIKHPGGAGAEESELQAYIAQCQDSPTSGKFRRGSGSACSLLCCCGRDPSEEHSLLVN
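TRPML1-DL cells, Tet-induced overnight (~16 h, 37 °C) at 1,500 cells/well, were loaded with Ca8 no-wash dye plus quencher for 45-90 min at room temperature. Compounds were pinned during FDSS kinetic reading; agonist 54-4 at EC80 (4 uM final) then added.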
gsp antagonist: antagonists of gsp mutant (McCune-Albright syndrome); AID 624288; 0.4% of 340,000 active; Potency, µM (doses to about 76.9 µM), without a hit: top-dose activity change, negative = inhibition, most hits filed as inhibitors; gsp-mutant cells, cAMP HTRF, 30 min; control for the full effect not named in the record; active = falling curve of any shape with a large fitted effect; inconclusive = falling curve, mostly with a smaller effect; inactive = flat or rising curve; cell line not stated here;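 also: intracellular cAMP measured with PDE inhibitor Ro 20-1724 present during compound exposure; potency is read from the fitted curve at half-maximal effect; % is scaled to controls: 0 for no effect and ±100 for the full control effect; nearly all actives have a fitted effect of over 65% in size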
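HTRF cAMP measurement after 30 min RT detection following 30 min, 37C compound treatment alongside […] (added as 300 uM solution) in G418-selected cells seeded at 2000/well and grown 16–24 h.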
ClpP mod: qHTS Assay for Activators of ClpP; purified B. subtilis ClpP, FRET peptide cleavage, 20 min; 1.9% of 340,000 active; AID 651965, 2013; Potency, µM (series often up to 57.5 µM), for the others: top-dose activity change, negative = active; active = well fitted falling curve with a large enough effect; inconclusive = small, poorly fitted or top-dose-only effect; inactive = no such curve, though single readings can be large or run the other way; also: potency is read from the fitted curve at half-maximal effect; the source files actives as falling curves though it sought activators and does not explain the sign; nearly all actives have a fitted effect of over 65% in size; many hits overshoot -100%
Target sequence (P80244 whole entry, looked up): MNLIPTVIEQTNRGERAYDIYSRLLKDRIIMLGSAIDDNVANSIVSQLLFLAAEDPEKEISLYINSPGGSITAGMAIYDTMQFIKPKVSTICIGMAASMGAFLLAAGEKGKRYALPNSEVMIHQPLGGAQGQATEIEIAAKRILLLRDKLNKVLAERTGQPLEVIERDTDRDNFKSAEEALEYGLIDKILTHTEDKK
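FRET quenching reversal measured ClpP activation: 10 microg/mL B. subtilis ClpP at pH 8 with the FRET-FV decapeptide, read at 430 nm after 320 nm excitation. The 20-min minus 0-min signal was scaled between DMSO/no-enzyme wells and ADEP (5.8 microM final).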
gsp agonist: agonists of gsp mutant (McCune-Albright syndrome); gsp mutant cells, cAMP HTRF, 30 min; control for the full effect not named in the record; Potency, µM (top dose mostly 76.9 µM), for the others: at the top dose activation (cAMP increase), actives largely listed as activators; AID 624287; 0.13% of 340,000 active; active = well fitted activation curve with a large enough effect; inconclusive = small, poorly fitted or top-dose-only effect, or another doubt; inactive = no such curve, though single readings can be large or run the other way; cell line not stated here;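 also: phosphodiesterase inhibitor Ro 20-1724 added with compounds to block cAMP breakdown; potency is read from the fitted curve at half-maximal effect; nearly all actives have a fitted effect of over 60% in size; about a fifth of the inactives were tested at one dose only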
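Cells in DMEM/10% FBS with G418 were pretreated with compounds in DMSO plus […] (300 uM stock) for 30 min at 37C. cAMP was measured by HTRF (cAMP-d2 plus anti-cAMP antibody-K) after 30 min at room temperature.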
Menin MLL FP FL: menin-MLL binding inhibition, fluorescein peptide. Fluorescence polarization, fluorescein-MLL peptide displacement from menin. FP activity change, % at 61.4 µM. 290,000 tested, under 10 active; inconclusive = falling polarisation curve, or a change in total fluorescence; inactive = total fluorescence flat and polarisation flat or rising; no compound was filed as active; the % refers to the polarisation; negative = inhibition;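 also: % of control where 0% means no effect; inhibitors lower the polarisation; unlabelled MLL peptide was the positive control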
TRPV1 potentiator: enhances activation of the human vanilloid receptor TRPV1; AID 540277; 0.02% of 320,000 active; TRPV1-expressing cells, Fluo-8 calcium influx, capsaicin EC20 potentiation; host cell line not named in the record; control for the full effect not named in the record; potentiation, % at 8.33 µM; active means potentiation above 80%; inconclusive means 30% to 80%; inactive means below 30%; also: 0% is about no effect
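TRPV1-expressing cells were cultured overnight at 35.5C and loaded with Fluo-8 calcium dye for 40 to 90 min at room temperature. After a 10 s baseline, compound was added and calcium influx was read kinetically for 3 min (ex 480/em 520 nm).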
Sfp PPTase inh: inhibitors of Bacillus subtilis Sfp phosphopantetheinyl transferase; Q9F4F7; Biochemical Sfp PPTase activity, qHTS; Potency, µM, without a hit: max response, negative = inhibition, actives largely listed as inhibitors; 3.5% of 310,000 active; AID 1490; active = well fitted inhibition curve with a large enough effect; inconclusive = small, poorly fitted or top-dose-only effect, or another doubt; inactive = no such curve, though single readings can be large or run the other way;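 also: the enzyme is Sfp with the accession as filed and its product quenches rhodamine fluorescence; potency is read from the fitted curve at half-maximal effect; 0% = enzyme reaction without inhibitor and -100% = no enzyme wells; top concentration of the series not given in the record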
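With Hepes-Na pH 7.6 buffer containing 10 mM MgCl2, Sfp (15 nM) modified BHQ-2-YbbR (12.5 uM) using rhodamine-CoA (5 uM). Two reads 30 minutes apart at 525/598 nm yielded each well's rate.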
* marks the source's active call; other numbers are inactive results; ? = inconclusive; . = no result given; [ ] = remark or other dose.

SMILES	TRPML1 inh	gsp antagonist	ClpP mod	gsp agonist	Menin MLL FP FL	TRPV1 potentiator	Sfp PPTase inh
Cc1ccc(SCCCn2cnc3ccccc3c2=O)cc1	24.7	?	-4.9%	-0.9%	2.8	.	5.6%
Cc1cccc(C)c1N1C(=O)[C@@H]2C(c3ccccc3Cl)=NO[C@@H]2C1=O	5.5	-10.3%	.	17.7%	-1.2	-3.2	8.4%
Cc1cccc(/N=C/c2c(O)n(Cc3ccc4c(c3)OCO4)c(=O)c3ccccc23)n1	1.5	10.4%	-0.7%	-0.4%[15.4 µM]	-8.7	7.6	10.1%
Cc1nc(C(F)(F)F)ccc1C(=O)Nc1ccc(C(F)(F)F)cn1	-0.5	-10.7%	.	-0.4%	0.3	-20.9	7.8%
COc1cccc(C(=O)C2CCCN(Cc3cccn3-c3cccnc3)C2)c1 (stereo not given)	20.3	3.3%	.	-21.1%	-4.4	0.7	4.4%
CSc1cccc(NC(=O)CN2C(=O)COc3ccc(S(=O)(=O)N4CCOCC4)cc32)c1	-18.0	-4.9%	-0.3%	-0.1%	-0.2	-0.7	10.2%
C[C@H](CO)N1C[C@H](C)[C@@H](CN(C)C(=O)Nc2ccc3c(c2)OCO3)Oc2c(NC(=O)Nc3ccc4c(c3)OCO4)cccc2C1=O	-2.0	-18.8%	0.3%	-8.2%	.	.	.
O=C(O)c1cc(-c2ccccc2)c(N2CCOCC2)s1	-5.5	-16.7%	-0.3%	1.6%	0.0	6.5	16.5%
OC1(C#Cc2c(-c3ccsc3)oc3ccc(N4CCOCC4)cc23)CCCCC1	67.7	-7.6%	4.2%	.	.	.	.
CCN(C(=O)CSc1nnc(NCCOC)s1)c1c(N)n(Cc2ccccc2)c(=O)[nH]c1=O	0.0	5.4%	-2.1%	8.6%	.	.	.
C=CCc1cc(Cl)ccc1OCCCNCCO	4.5	-2.1%	-4.5%	-39.0%[inhibitor]	-1.0	11.7	-29.4%
CC(C)CN1CCN(Cc2ccc3ncccc3c2)CC1CCO (stereo not given)	-16.6	11.2%	-1.1%	9.0%[15.4 µM]	-7.3	-0.5	18.6%
O=C(NCc1cccnc1)c1ccc(NS(=O)(=O)c2ccccc2)cc1	-4.4	0.5%	1.0%	-10.7%	0.5	4.2	20.3%
Cc1ccc2[nH]c(C)c(CC(=O)NCc3ccccc3)c2c1	-1.6	-6.1%	.	-43.7%[inhibitor]	0.2	-11.3	0.3%
O=C(Nc1ccnc(-c2ccncc2)n1)C1CC1	-19.5	9.9%	.	13.7%[15.4 µM]	2.7	-8.8	11.8%
Cc1ccc(Cl)c(OCC(=O)Nc2ccccc2C(=O)NC2CC2)c1	?	0.5%	-3.2%	?	.	8.0	4.0%
CCCn1c2c(c(O)c(C(=O)Nc3ccccc3)c1=O)CCCC2	-13.6	-13.2%	-11.5%	-2.2%	2.0	8.1	?
O=C(N/N=C/c1ccncc1)/C(=C/c1ccccc1)NC(=O)c1ccccc1	0.6	-8.0%	-0.3%	?	1.7	3.6	20.6%
COCCNC(=O)c1onc(CSc2cccc(OC)c2)c1C(=O)O	11.1	?	2.3%	5.5%	5.0	28.8	26.4%
O=S(=O)(c1ccccc1S(=O)(=O)N1CCCCC1)N1CCCCC1	8.4	6.5%	-0.4%	23.1%	3.7	-3.9	11.8%
COc1ccc(-c2coc3cc4oc(=O)cc(C)c4cc23)cc1F	44.4	-0.1%	-24.6%	-37.7%[inhibitor]	-2.6	-5.3	-2.0%
Cc1cc(Cl)ccc1NC(=O)NC1CCN(S(=O)(=O)c2ccc(F)cc2)CC1	44.1	-17.6%	5.2%	-3.2%	-0.7	-0.7	?
Cc1ccn2c(=O)c(NC(=O)c3ccc4c(c3)OCO4)c(C)nc2c1	-4.4	.	-3.1%	-3.7%	.	.	.
O=C(NC1(C(F)(F)F)NC(=O)N(c2ccc(F)cc2)C1=O)c1cccs1 (stereo not given)	-9.4	0.1%	-10.7%	-12.6%	1.0	-1.9	12.6%
CCN(C(=O)CSc1nc2ccccc2c(=O)n1C(C)COC)C1CCS(=O)(=O)C1 (stereo not given)	14.5	-1.7%	.	0.1%	-1.5	-2.9	-10.9%
O=C(COC(=O)CC(c1ccccc1)c1ccccc1)NCc1ccccc1	-1.0	-15.6%	-2.3%	6.1%	4.7	-12.3	1.7%
CS(=O)(=O)Oc1ccc(Br)cc1/C=C1/N=C(c2ccco2)OC1=O	16.0	13.9%	-16.3%	22.1%	1.4	8.9	-7.8%
Cn1c(=O)c2c(nc(SCC(=O)NCc3ccc4c(c3)OCO4)n2Cc2ccc(F)cc2)n(C)c1=O	6.5	2.4%	0.5%	7.6%	4.3	-3.9	-17.0%
C=CCOc1ccc(/C=C2\N=C(C)OC2=O)cc1OC	7.7	0.7%	-2.7%	-6.2%[15.4 µM]	10.4	0.1	3.7%
CCOc1cc(/C=N/Nc2nc(=O)[nH]nc2C)ccc1O	1.8	-5.6%	.	-32.4%[15.4 µM]	21.6	22.5	70.8µM*
O=C(CCNS(=O)(=O)c1ccccc1)N1CCOCC1	2.0	5.2%	0.1%	29.3%	.	29.4	17.9%
O=C(COc1ccc(Br)cc1Cl)c1ccc[nH]1	8.7	-11.8%	.	3.3%[15.4 µM]	6.4	8.8	-2.3%
C[C@@H]1CN([C@H](C)CO)C(=O)c2cc(NC(=O)c3ccncc3)ccc2O[C@@H]1CN(C)C(=O)Nc1ccccc1	-3.1	9.0%	-2.4%	.	.	.	.
C/C(=N\OC(=O)c1ccc(F)cc1)c1sc(-c2ccc(Cl)cc2)nc1C	.	-18.1%	-7.7%	-1.3%	.	.	.
CCOc1cccc2c1OC1(C)CC2NC(=O)N1c1cccc(Cl)c1 (stereo not given)	12.8	-12.4%	-0.6%	-2.4%	0.9	-21.5	14.1%
O=C(CNC(=O)c1ccccc1Cl)NC1CCN(Cc2ccccc2)CC1	-20.3	6.9%	.	-7.8%	-2.8	21.0	19.3%
O=C(N1CCOCC1)C12CC3CC(C1)CC(C(=O)N1CCOCC1)(C3)C2	11.9	-3.3%	0.1%	-9.4%	-0.4	5.9	7.7%
COC(=O)C1=C(C(=O)OC)[C@]2([C@@H]3CCCCN[C@@H](Cc4ccccc4)C(=O)N3Cc3ccccc3)C=C[C@H]1O2	34.4	-5.6%	-0.2%	-4.8%	.	.	.
O=c1cc(-c2nn[nH]n2)[nH]c(=O)[nH]1	37.7	4.4%	.	15.5%	.	.	.
COc1ccc(NC(=O)CN(C)C(=O)C2CCCO2)cc1 (stereo not given)	-2.6	9.6%	1.3%	-63.7%[inhibitor]	.	0.3	.
CC1CCCCN1C(=O)C1CCN(c2nc(-c3ccccc3)nc3c2CCC3)CC1 (stereo not given)	51.3	?	-3.8%	-16.4%	7.8	-12.5	-5.8%
COc1ccc(Cn2c(=O)[nH]c3cc(C(=O)NCCCN4CCCC4)ccc3c2=O)cc1	-2.0	12.2%	-16.2%	-8.5%	-0.1	4.4	-0.2%
Cc1ccc(C)c(S(=O)(=O)NCC(=O)OCC(=O)Nc2sccc2C(N)=O)c1	-3.8	-1.3%	0.4%	-53.4%[inhibitor]	.	3.4	.
O=C(Nc1cccnc1)c1cc(-c2ccccc2)on1	-5.3	-3.8%	0.8%	-25.3%	1.0	-14.9	13.2%
CN(C)Cc1cc(C(C)(C)C)c(O)c(C(C)(C)C)c1	-12.5	-29.2%	-0.6%	15.7%	-0.1	-2.1	5.2%
CCCn1nc(NC(C)=O)c2cc3cccc(C)c3nc21	-22.3	-1.9%	.	25.6%	0.3	-9.9	0.9%
COc1ccc(-n2ncc3c(N4CCCc5ccccc54)ncnc32)cc1	4.9	-23.7%	-1.6%	3.8%	13.4	0.4	19.7%
COc1ccc(-c2cc(N)n(S(=O)(=O)c3ccc(F)cc3)n2)cc1OC	-1.6	-14.7%	0.2%	-1.7%	0.2	11.8	-11.5%
CSc1sc(C(=O)NNC(C)=O)c2c1C=CCC2	5.7	1.0%	-9.1%	4.6%	-2.3	2.5	-0.7%
COC(=O)C1=C(C(=O)OC)[C@@H]2N(C)c3ccccc3[C@@]23C[C@@H](CO)N(C(=O)C2CCC2)C3=N1	0.4	-6.0%	1.4%	.	-0.9[11.7 µM]	.	-4.1%
Cc1ccc2c(CC(=O)OC(C)C(=O)Nc3ncc(Cl)cc3Cl)coc2c1 (stereo not given)	-10.0	-20.6%	-0.8%	-66.7%[inhibitor]	7.8	-5.2	12.0%
CC(C)Cc1ccc(C(C)NC(=O)c2ccc(=O)[nH]c2)cc1 (stereo not given)	-8.0	7.5%	-1.7%	23.8%	-1.0	-15.0	6.0%
CCCc1cc(C(=O)N2CCCC(C(=O)c3cccc4ccccc34)C2)n(C)n1 (stereo not given)	-0.5	-15.8%	-0.2%	-29.9%	-0.7	7.2	1.7%
COc1cccc(N2CCN(CC(=O)NC3=Nc4ccccc4N=C(C)C3c3ccccc3)CC2)c1 (stereo not given)	22.2	-3.9%	.	6.1%[15.4 µM]	-0.2	13.8	14.7%
CC1CCc2ccccc2N1CC(=O)Nc1cccc(S(=O)(=O)N2CCCC2)c1 (stereo not given)	31.1	-19.5%	.	9.0%[15.4 µM]	.	5.5	.
CC(=O)c1ccc(OCCCC(=O)N2CCN(S(=O)(=O)c3ccc(C(C)C)cc3)CC2)cc1	6.5	-22.5%	0.6%	-13.7%	.	-2.6	.
COc1ccc(NC(=O)c2ccc(C(=O)c3ccccc3)o2)cc1	0.2	-8.5%	1.2%	16.9%	5.2	-8.0	8.2%
O=C(O)CCCNc1c(C(=O)Nc2ccc(Cl)cc2)cc([N+](=O)[O-])cc1[N+](=O)[O-]	-1.7	-12.0%	.	-3.4%[15.4 µM]	-5.7	14.0	-0.3%
